Bioassay records (PubChem BioAssay)
TRPML1 inh = blocks the human TRPML1 channel | TRPML1-inducible cells, Ca2+ dye fluorescence, FDSS; active compounds read low; inhibition of EC80 agonist-evoked calcium signal | activity change, negative = inhibition, % (concentration not given with the values) | 390,000 tested, 0.02% active; in the data active means activity change below about -50%; inconclusive means about -30% to -50%; inactive means above about -30%;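 also: stimulus is agonist 54-4 at its EC80 concentration; % is scaled to controls: 0 for no effect and ±100 for the full control effect; the text of the record puts the active cut at -80%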
Target sequence (Q9GZU1 whole entry, looked up): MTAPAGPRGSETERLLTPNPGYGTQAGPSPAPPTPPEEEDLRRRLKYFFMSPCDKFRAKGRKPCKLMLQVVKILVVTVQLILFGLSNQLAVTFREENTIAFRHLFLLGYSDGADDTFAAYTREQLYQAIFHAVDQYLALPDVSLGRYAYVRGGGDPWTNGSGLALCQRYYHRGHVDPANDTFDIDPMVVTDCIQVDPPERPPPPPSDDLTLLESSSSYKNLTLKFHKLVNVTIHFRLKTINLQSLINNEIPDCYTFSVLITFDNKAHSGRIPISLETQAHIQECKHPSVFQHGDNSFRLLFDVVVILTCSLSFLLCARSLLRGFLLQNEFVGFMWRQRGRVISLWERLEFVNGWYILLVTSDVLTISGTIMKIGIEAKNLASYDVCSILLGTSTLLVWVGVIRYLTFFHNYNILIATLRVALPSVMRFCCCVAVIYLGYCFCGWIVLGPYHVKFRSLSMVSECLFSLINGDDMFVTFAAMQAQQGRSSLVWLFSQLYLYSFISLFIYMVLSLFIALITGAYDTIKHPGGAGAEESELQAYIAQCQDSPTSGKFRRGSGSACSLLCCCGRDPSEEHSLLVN
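Calcium fluorescence in TRPML1-DL cells induced overnight with Tet: a 110 s read after compound pin addition, then a 110 s antagonist read after challenge with 54-4 at 4 uM final (EC80).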
ClpP mod = qHTS Assay for Activators of ClpP | ATP-dependent Clp protease proteolytic subunit (Bacillus subtilis (strain 168)), P80244 | 340,000 tested, 1.9% active | Potency, µM (titrated, usually from 57.5 µM), inactives show top-dose activity change, negative = active | purified B. subtilis ClpP, FRET peptide cleavage, 20 min; active = well fitted falling curve with a large enough effect; inconclusive = small, poorly fitted or top-dose-only effect; inactive = no such curve, though single readings can be large or run the other way; also: potency is read from the fitted curve at half-maximal effect; the source files actives as falling curves though it sought activators and does not explain the sign; nearly all actives have a fitted effect of over 65% in size; many hits overshoot -100%
Target sequence (P80244 whole entry, looked up): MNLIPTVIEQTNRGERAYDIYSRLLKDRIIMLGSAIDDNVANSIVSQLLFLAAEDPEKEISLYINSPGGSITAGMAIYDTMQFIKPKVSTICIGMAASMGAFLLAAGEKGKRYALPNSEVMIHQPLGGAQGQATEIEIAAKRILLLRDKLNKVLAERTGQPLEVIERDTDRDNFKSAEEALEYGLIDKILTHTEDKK
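ClpP 10 microg/mL final, pH 8 Tris/KCl buffer with BSA, glycerol, Tween-20; compound pinned in; FRET-FV substrate; RT 20 min; Ex320/Em430; ΔFRET vs ADEP 5.8 microM, DMSO, no enzyme.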
An asterisk follows results filed as active; ? = inconclusive.

SMILES	TRPML1 inh	ClpP mod
CC1Cc2ccccc2N1C(=O)CSc1nc2ccc(NC(=O)COc3ccccc3)cc2s1 (stereo not drawn)	-6	-2.7%
COc1cccc(N2CCN(Cc3cc(=O)oc4cc(C)ccc34)CC2)c1	-6	-0.9%
Cc1cccc(-n2c(N)cc(=O)nc2SCC(=O)Nc2ccc(F)cc2)c1C	-10	0.1%
COc1ccc(CNC(=O)CN2C(=O)CCn3nc(-c4cn(C)c5ccccc45)cc32)cc1	-3	-16%
O=C(Nc1cc(Cl)cc(Cl)c1)c1ccc(F)c(S(=O)(=O)NC2CCCCC2)c1	10	-10%
Cc1cccc(-c2nc(SCC(=O)Nc3ccc4c(c3)OCCO4)c(-c3ccccc3)[nH]2)c1	-15	-15%
CCOC(=O)C1CCCN(C(=O)CCS(=O)(=O)c2cc3c(cc2Cl)NC(=O)CO3)C1 (stereo not drawn)	6	-3.6%
Cc1cc(C)c2c(c1)c(C)cc1nnc(SCC(=O)c3ccc(F)cc3)n12	1	0.3%
CCN(CC)C(=O)c1cccc(-c2csc(C(O)c3ccco3)n2)c1 (stereo not drawn)	25	-1.9%
COc1cc(OC)c(NC(=O)Nc2sc3nc4n(c(=O)c3c2C)CCC(C)CC4)cc1Cl (stereo not drawn)	-13	-3.9%
CC(=O)Nc1cccc(NC(=O)c2c(-c3ccccc3)c(-c3ccccc3)nn(C)c2=O)c1	0	-1.3%
CN(C)c1ccc(-c2csc(C(O)c3cccc(Cl)c3)n2)cc1 (stereo not drawn)	43	-1.3%
CC(C)(C)NC(=O)CSc1nc(-c2ccc(F)cc2)cc(C(F)(F)F)n1	5	0.5%
Cc1ccc(N2CC(NC(=O)/C=C\c3ccc4c(c3)OCO4)CC2=O)cc1 (stereo not drawn)	-4	3.9%
CCOC(=O)c1ccc(NC(=O)CN(c2ccc(C)cc2)S(=O)(=O)c2ccc(OC)cc2)cc1	8	-7.4%
Cc1ccc2sc(N(Cc3cccnc3)C(=O)CCS(=O)(=O)c3ccccc3)nc2c1C	-24	-3.8%
CCOC(=O)C(C)Nc1ncnc2onc(C)c12 (stereo not drawn)	6	?
Cn1c2c(c(=O)n(C)c1=O)C(c1cc(Br)ccc1F)CC(=O)N2 (stereo not drawn)	10	-1.8%
COc1ccc(C)cc1N(C)C(=O)CCc1nc(-c2ccccc2F)no1	1	-0.2%
Cc1ccc(-n2c(=O)c3ccc(C(=O)NCc4ccccc4Cl)cc3n(Cc3cccc(F)c3)c2=O)cc1	-3	-0.9%
COCCCn1c(=O)c2sccc2n2c(CCCC(=O)Nc3cccc(C(F)(F)F)c3)nnc12	1	-11%
CC1CCN(S(=O)(=O)c2ccc3[nH]cc(C(=O)NCc4ccc(F)cc4)c(=O)c3c2)CC1	2	-1.9%
CCCn1c2ccccc2c2cnn(CC(=O)NCCc3ccc(OCC)cc3)c(=O)c21	26	-10%
CCOC(=O)c1ccc(NC(=O)C2=C(C)Nc3nc(SCc4ccc(Cl)cc4)nn3C2c2ccc(OC)cc2)cc1 (stereo not drawn)	-10	-7.0%
COC(=O)Cn1c(CN2CCN(c3ccc(OC)cc3)CC2)nc2c1c(=O)[nH]c(=O)n2C	12	-6.8%

Full records, quoted from the list.
Record of Cc1ccc(-n2c(=O)c3ccc(C(=O)NCc4ccccc4Cl)cc3n(Cc3cccc(F)c3)c2=O)cc1 = TRPML1 inh = -3; ClpP mod = -0.9%
Record of CCCn1c2ccccc2c2cnn(CC(=O)NCCc3ccc(OCC)cc3)c(=O)c21 = TRPML1 inh = 26; ClpP mod = -10%

Part of the list above in order of SMILES length, ascending:
SMILES	TRPML1 inh	ClpP mod
CCN(CC)C(=O)c1cccc(-c2csc(C(O)c3ccco3)n2)c1 (stereo not drawn)	25	-1.9%
Cc1cc(C)c2c(c1)c(C)cc1nnc(SCC(=O)c3ccc(F)cc3)n12	1	0.3%
Cc1ccc2sc(N(Cc3cccnc3)C(=O)CCS(=O)(=O)c3ccccc3)nc2c1C	-24	-3.8%
COc1ccc(CNC(=O)CN2C(=O)CCn3nc(-c4cn(C)c5ccccc45)cc32)cc1	-3	-16%
COC(=O)Cn1c(CN2CCN(c3ccc(OC)cc3)CC2)nc2c1c(=O)[nH]c(=O)n2C	12	-6.8%
Cc1ccc(-n2c(=O)c3ccc(C(=O)NCc4ccccc4Cl)cc3n(Cc3cccc(F)c3)c2=O)cc1	-3	-0.9%
CCOC(=O)c1ccc(NC(=O)C2=C(C)Nc3nc(SCc4ccc(Cl)cc4)nn3C2c2ccc(OC)cc2)cc1 (stereo not drawn)	-10	-7.0%

(further entries)
SMILES	TRPML1 inh	ClpP mod
Cc1ccc(Nc2c(-c3cc(Br)ccc3F)nc3cc(C)ccn23)cc1	42	4.3%
CCOc1ccc(-n2c(=O)c3c(C)c(C)sc3n(Cc3ccc(C(C)(C)C)cc3)c2=O)cc1	-20	-2.9%
COc1ccc(/C=C/c2nc(C#N)c(N3CCC(C)CC3)o2)cc1OC	4	4.7%
COc1cccc(CNCCCSc2nnnn2C)c1	-3	-2.7%
COc1ccc(C)cc1Nc1cc(C)nc(C)n1	17	-1.5%
Cc1ccc(CN2C(=O)c3ccccc3Sc3ccc(C(=O)NCc4ccco4)cc32)cc1	68	-6.8%
COc1ccc(C2c3c(n(C)c4ccccc34)C(=O)N2CC(=O)Nc2cccc(Cl)c2C)cc1 (stereo not drawn)	3	?
COc1ccc(C(=O)NCC(c2ccc3c(c2)OCO3)N2CCN(c3ccccc3F)CC2)cc1 (stereo not drawn)	7	-0.6%
CCCn1cc(S(=O)(=O)c2ccccc2)c(=O)c2cc(F)c(N3CCCCC3)cc21	-15	?
O=C(O)c1cc(-c2ccc(C(F)(F)F)cc2)nc2n[nH]c(-c3ccccc3)c12	6	?
CCOC(=O)c1c(C)[nH]c(CCC(=O)Nc2ccccc2C(F)(F)F)c1C	17	-4.8%
CCc1ccccc1NC(=O)Nc1cc(C(=O)NCc2cccc(F)c2)ccc1N1CCCC1	-6	-1.2%
Cc1noc(Cn2c(=O)c3ccccc3n(CC(=O)Nc3ccccc3C(F)(F)F)c2=O)n1	35	-18%
CCc1ccc2c(c1)c(=O)c(C(=O)c1ccc(C)cc1)cn2CC(=O)Nc1ccccc1C	0	0.7%
Cc1ccc(-c2nc3ccccc3n3c(-c4ccccc4)c4c(=O)n(C)c(=O)n(C)c4c23)cc1	0	0.5%
CC(C)CCn1c(=O)c2sccc2n2c(CCCC(=O)NC(C)C)nnc12	-19	?
CN(C)C(=O)c1cccc(-c2cccc3nccn23)c1	10	4.5%
CN(CC(=O)Nc1ccc(F)cc1F)S(=O)(=O)c1ccc(C(=O)N2CCOCC2)s1	-7	0.4%
COc1ccc(-c2onc(C)c2C)cc1S(=O)(=O)NCC1CCN(Cc2cc(C)ccc2C)CC1	10	-8.9%
CC(C)c1ccc(OCC(=O)Nc2cc(-c3ccccc3)no2)cc1	10	0.9%
Cc1cccc(-c2noc(-c3cccnc3NCc3ccccc3Cl)n2)c1	25	?
COc1cccc(CNC(=O)CSc2c3c(nc4cc(Cl)ccc24)CCCC3)c1	14	-1.6%
Cc1ccc(Cl)cc1N(C)C(=O)c1sc2nc3n(c(=O)c2c1C)CCCC3	-11	-0.8%
CCNc1nc2c(c(=O)[nH]c(=O)n2C)n1CC(O)COc1ccc(Cl)cc1Cl (stereo not drawn)	-9	0.5%
CCOC(=O)c1ccccc1NC(=O)NC(C)c1c(-n2cccc2)sc(C)c1C (stereo not drawn)	15	?
SMILES	TRPML1 inh	ClpP mod
CCOc1ccc(NC(=O)CN(C)S(=O)(=O)c2ccc3[nH]c4c(c3c2)CCCC4)cc1	-9	?
CSc1ccc(CNC(=O)c2cc3cc(S(=O)(=O)N4CCCCC4)ccc3n2C)cc1	-11	?
CCn1c(CN2CCOCC2)nc2cc(NC(=O)c3cccc([N+](=O)[O-])c3)ccc21	-4	-5.2%
CCCC(=O)N1CCC1(C)C(=O)Nc1ccc(C)c(C)c1 (stereo not drawn)	100	0.3%
Cc1nc(N2C(=O)c3oc4ccccc4c(=O)c3C2c2cccc(OCCC(C)C)c2)sc1C (stereo not drawn)	-6	1.7%
CC(C)NC(=O)c1ccc(-n2c(-c3ccccc3)cc3c2CCCCC3)cc1	-18	-2.8%
COc1ccc(C(=O)Nc2cc(C(F)(F)F)ccc2N2CCN(c3ccccc3)CC2)cc1OC	-12	-2.7%
CC(C)C(N)c1csc(NC(=O)Nc2cccc(Cl)c2)n1 (stereo not drawn)	-5	-1.3%
Cc1cc(C)c2oc(-c3cccc(NC(=O)COc4ccccc4Cl)c3C)nc2c1	?	-5.1%
CCc1ccc(NC(=O)C2CCN(c3nn4c(=O)cc(C)nc4s3)CC2)cc1	9	-5.3%
COc1ccc(Cl)cc1NC(=O)C(C)Sc1nc2c(c(=O)[nH]1)CCCC2 (stereo not drawn)	35	0.1%
COc1ccc(-n2c(=O)c3c4c(sc3n(Cc3ccc(C(C)(C)C)cc3)c2=O)CCC4)c(OC)c1	18	-2.0%
CCc1ccc(CN2CCc3nc(Nc4ccccc4)ncc3C2)cc1	-17	-2.8%
CC(C)c1ccccc1NC(=O)CN1C(=O)c2cccc3cccc1c23	-2	-3.2%
COc1ccc(-c2noc(CSc3nnc(C)n3-c3cccc(C)c3)n2)cc1	-1	1.2%
Cc1ccc2nc(-c3ccncc3)c(Nc3ccc(C(C)C)cc3)n2c1	-1	-9.8%
Cc1ccccc1OCC(=O)Nc1ccc(S(=O)(=O)Nc2ncccn2)cc1	8	-0.9%
CCOC(=O)c1c(C)c(C(=O)NCCc2ccc(OC)cc2)c(C)n1C	-7	-0.2%
COc1ccc(Cc2c(-c3cccc(Br)c3)nc3ccc(Br)cn23)c(C)c1	11	-5.9%
O=C(NCC(c1cccs1)S(=O)(=O)c1cccs1)c1c(F)cccc1F (stereo not drawn)	-14	-0.7%
Cn1c(N)c(C#N)c(-c2ccccc2)c(C#N)c1=O	17	-1.3%
Cc1ccc(CCNS(=O)(=O)c2c(C)nc3sc(C)c(C)n3c2=O)cc1	5	6.3µM*
Cc1ccc(C2CC(=O)N(Cc3ccccc3)c3c2c(C)nn3-c2nc(C)cc(C)n2)cc1 (stereo not drawn)	-16	1.1%
CCOc1ccccc1-n1ccnc(NCc2ccc(F)cc2)c1=O	2	-11%
CCOC(=O)C1=CC[C@@H](c2ccccc2C(F)(F)F)N(S(=O)(=O)c2ccc(C)cc2)[C@H]1c1ccc(C#N)cc1	-3	-0.5%

Look-ups from the results shown:
CCOC(=O)c1c(C)c(C(=O)NCCc2ccc(OC)cc2)c(C)n1C – TRPML1 inh: -7
CCOc1ccccc1-n1ccnc(NCc2ccc(F)cc2)c1=O – ClpP mod: -11%
CCc1ccc(NC(=O)C2CCN(c3nn4c(=O)cc(C)nc4s3)CC2)cc1 – TRPML1 inh: 9
CCOc1ccc(NC(=O)CN(C)S(=O)(=O)c2ccc3[nH]c4c(c3c2)CCCC4)cc1 – TRPML1 inh: -9
Cc1nc(N2C(=O)c3oc4ccccc4c(=O)c3C2c2cccc(OCCC(C)C)c2)sc1C (stereo not drawn) – TRPML1 inh: -6

Further structures
SMILES	TRPML1 inh	ClpP mod
COc1cccc(-c2cc(C(=O)Nc3ccc(C)cc3)[nH]n2)c1	-14	60%
CN1C(=O)c2ccccc2Sc2ccc(NC(=O)Cc3c(F)cccc3Cl)cc21	-13	1.3%
CC(C)(C)c1ccc(C(=O)NCC(c2cccs2)S(=O)(=O)c2cccs2)cc1 (stereo not drawn)	36	-1.9%
Brc1ccc2nc(C3CCCCC3)c(CC3CCCCC3)n2c1	17	-2.4%
Cc1nn(C)c(C)c1CCNC(=O)Nc1cccc(Cl)c1C	-21	-0.4%
CCOc1ccc(NC(=O)c2cc(S(=O)(=O)NC3CCCCCC3)ccc2F)cc1	12	0.2%
Cc1ccc(N2CCN(C(=O)c3cn(C)c4ccc(S(=O)(=O)N(C)C5CCCCC5)cc4c3=O)CC2C)cc1 (stereo not drawn)	1	0.7%
CCN1CCN(C(c2cccc(OC)c2)c2c(O)cc(C)n(Cc3ccco3)c2=O)CC1 (stereo not drawn)	-5	-0.7%
COc1cccc(CNC(=O)CCCn2c(=O)c3cccn3c3cccnc32)c1OC	?	-28%
CCN(CC)S(=O)(=O)c1ccc(NC(=O)CCc2c(C)nc3cc(-c4ccc(Cl)cc4)nn3c2C)cc1	12	16µM*
CCOC(=O)C1=CCN(S(=O)(=O)c2ccccc2Cl)C1c1cccc(Br)c1 (stereo not drawn)	-7	-1.5%
CNc1cncc(-c2ccccc2NC(C)=O)n1	23	4.9%
Cc1ccccc1Nc1c(-c2ccc(Br)cc2O)nc2sccn12	32	-12%
Cc1ccc(-c2noc(C3CC(=O)N(c4ccc5c(c4)OCCO5)C3)n2)cc1 (stereo not drawn)	-7	-0.2%
O=C(NCCCN1CCN(c2ccc(F)cc2)CC1)c1ccc2nc(CCc3ccccc3)oc2c1	6	0.0%
Cc1ccc(NC(=O)CN2C(=O)CCn3nc(-c4cccn4C)cc32)cc1	-1	2.5%
COc1ccc(-n2ccnc2SCC(=O)Nc2cccc(OC)c2)cc1	15	-2.3%
COc1ccc(CNC(=O)C(=O)Nc2cccc(C)c2C)cc1	15	-2.1%
COc1cc(C)ccc1OCCSc1nnc(-c2cccs2)o1	-26	-5.9%
Cc1ccc(CSc2nc3cccnc3n2Cc2ccc(C(=O)NCCc3cccs3)cc2)cc1	21	4.4%
CC1=C(c2ccc(C)c(C)c2)S(=O)(=O)N=C1N1CCC(C(=O)N2CCCCC2)CC1	18	-5.2%

A portion of the library (hit frequency here may not be typical).
